# YB-1 expression – YB-1 expression inhibition; hit rate 0.37% among 30,000; delta delta Cp (YB-1 minus CDIP) (test concentration not listed); U2OS, qRT-PCR YB-1 vs CDIP delta delta Cp, 16 h; active compounds read high; zero = DMSO, each unit about twofold;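 active means delta delta Cp rounded down to an integer at or above 3, about 3 SD of DMSO wells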;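 further: higher means less YB-1 transcript or more CDIP transcript relative to DMSO; stock transfer was 100 nL into about 100 µL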
# Hedgehog inh – Sonic Hedgehog pathway inhibition. inhibition, % (no concentration beside the values). Shh-LIGHT2 Gli-luciferase reporter, 30 h. hit rate 2.1% among 22,000;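 active means replicate mean of 65% or more; inconclusive means mean lower but half the replicates past it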;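 further: pathway switched on by Shh-conditioned medium diluted 1 in 25 in low serum; 100 nL library stock added to about 40 µL; 0% = median of neutral wells and 100% = positive control level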
# MITF inhib – blocks MITF activity. inhibition, % (test concentration not listed). hit rate 0.28% among 37,000. TRPM1 promoter luciferase, luminescence, 24 h;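 active means most replicates at 85% or more, or half of them and the mean; inconclusive means half reach 85% but not the mean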;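 further: human melanocyte line stably carrying TRPM1 promoter luciferase reporter; 0% = vehicle wells and 100% = a positive control; the first replicate is given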
# PD-1 reverse act – activators reversing PD-1 mediated T-cell inhibition. primary human CD4 T cells, PD-L1 beads, CellTiter-Glo 96 h. 29,000 tested, under 10 active. activation, % (test concentration not listed);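 active means replicate mean of 50% or more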;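 further: 0% = median vehicle wells and 100% = positive control; 100 nL library stock added to about 50 µL; numbers are from one replicate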
# * marks the source's active call; other numbers are inactive results; ? = inconclusive; nt = no result given. Only part of the results is shown (hit frequency here may not be typical).
# Every second line gives: YB-1 expression, Hedgehog inh, MITF inhib, PD-1 reverse act
COc1ccc(CN(C)C[C@H]2Oc3ccc(NC(=O)NC(C)C)cc3CC(=O)N([C@H](C)CO)C[C@H]2C)cc1
    -0.22, -22, 7, nt
C[C@@H]1CN([C@H](C)CO)C(=O)c2cc(NC(=O)CCCN(C)C)ccc2O[C@@H]1CN(C)S(=O)(=O)c1ccccc1
    -0.5, -46, -6, 0.2
COc1ccc(-c2nn(C)c(=O)c3ccccc23)cc1NC(=O)Cn1nc(C)c2ccccc2c1=O
    nt, nt, -4, 1.4
C[C@@H]1CN([C@H](C)CO)C(=O)Cc2cc(NC(=O)Nc3ccccc3)ccc2O[C@@H]1CN(C)CC1CCCCC1
    -0.78, nt, 7, 1.3
CC(C)NC(=O)N(C)C[C@@H]1Oc2ccc(NS(=O)(=O)c3ccccc3)cc2C(=O)N([C@@H](C)CO)C[C@@H]1C
    0.0069, nt, 3, 0.1
O=C(Cn1ncc2ccccc2c1=O)Nc1cccc([N+](=O)[O-])c1
    nt, nt, 10, 3.4
Cc1ccc(C)c(N(CC(=O)Nc2ccc(Br)c(Cl)c2)S(C)(=O)=O)c1
    nt, nt, 8, 0.0
COC(=O)CSc1nc2ccccc2[nH]1
    -0.34, -90, -1, 3.0
Cc1ccccc1N1C(=O)c2cc(S(N)(=O)=O)c(Cl)cc2NC1C (stereo not given)
    0.16, 5, -19, 5.9
O=S(=O)(CCc1ccncc1)c1ccccc1
    0.32, -17, 19, 0.2
O=C(CCCCCC/C=C/c1ccc2c(c1)OCO2)N1CCCCC1
    -0.45, 1, 5, 0.7
COc1ccc(S(=O)(=O)N(C)C[C@H]2Oc3ccc(NS(C)(=O)=O)cc3CC(=O)N([C@@H](C)CO)C[C@@H]2C)cc1
    0.23, -29, -1, 1.1
COc1cc2sc(C)nc2c2ccccc12
    0.12, -20, -12, -0.3
O=S(=O)(NCCc1ccccc1)c1ccccc1
    -0.48, -20, -1, 0.8
C[C@@H]1CCCCO[C@H](CN(C)S(=O)(=O)c2ccccc2)[C@@H](C)CN([C@H](C)CO)C(=O)c2cc(NS(=O)(=O)c3ccc(F)cc3)ccc2O1
    -0.046, nt, 10, nt
COc1ccc(CN(C)C[C@H]2Oc3c(NC(=O)NC4CCCCC4)cccc3C(=O)N([C@H](C)CO)C[C@H]2C)cc1
    -0.091, -6, -30, 1.6
C[C@@H]1CN([C@@H](C)CO)C(=O)c2cccc(NS(=O)(=O)c3cn(C)cn3)c2O[C@@H]1CN(C)S(=O)(=O)c1ccc(F)cc1
    -0.62, 8, -8, 1.8
CCSc1ncnc2c1sc1nc3c(cc12)COC(C)(C)C3
    -0.57, -62, -57, 0.7
C[C@@H]1CN([C@H](C)CO)C(=O)c2cc(NC(=O)CCCN(C)C)ccc2O[C@H]1CN(C)S(=O)(=O)c1ccc(F)cc1
    -0.48, -17, -7, -0.5
C[C@H](CO)N1C[C@H](C)[C@@H](CN(C)C(=O)NC2CCCCC2)Oc2ccc(NC(=O)c3ccncc3)cc2C1=O
    -0.27, -9, -7, 0.8
COc1ccc2oc(-c3ccccc3)cc(=O)c2c1
    0.47, -134, -25, 0.2
COc1ccc(-c2nnnn2C)cc1S(=O)(=O)NCc1ccccc1
    nt, nt, -11, 2.1
C[C@H](CO)N1C[C@H](C)[C@H](CN(C)Cc2ccc3c(c2)OCO3)Oc2ccc(NC(=O)Nc3ccccc3)cc2CC1=O
    -0.36, -17, 0, 1.8
CC(C)NC(=O)Nc1ccc2c(c1)CC(=O)N([C@@H](C)CO)C[C@H](C)[C@H](CN(C)Cc1ccc(Cl)c(Cl)c1)O2
    -0.03, -20, -11, nt
CC(C)NC(=O)N(C)C[C@H]1Oc2ccc(NS(=O)(=O)c3cn(C)cn3)cc2C(=O)N([C@@H](C)CO)C[C@H]1C
    0.17, -32, -6, 2.0
C[C@@H]1CN([C@@H](C)CO)C(=O)Cc2cc(NC(=O)C3CC3)ccc2O[C@@H]1CN(C)Cc1ccccc1
    0.23, 15, 8, 3.1
C[C@@H]1CN([C@H](C)CO)C(=O)Cc2cc(NC(=O)Cn3cnnn3)ccc2O[C@@H]1CN(C)C(=O)Nc1ccc2c(c1)OCO2
    0.2, -1, 11, 1.0
C[C@@H]1CN([C@H](C)CO)C(=O)c2cc(NS(=O)(=O)c3ccc(Cl)cc3)ccc2O[C@H]1CN(C)CC1CCCCC1
    -0.071, nt, -7, 1.3
C[C@@H]1CN([C@H](C)CO)C(=O)Cc2cc(NC(=O)Nc3ccc(C(F)(F)F)cc3)ccc2O[C@H]1CN(C)S(=O)(=O)c1ccccc1
    -0.026, -4, 17, 2.3
CC1CN(c2nc3ccccc3nc2SCC(=O)NCc2ccccc2Cl)CC(C)O1 (stereo not given)
    0.23, -13, -12, 0.0

# Compounds listed so far that contain an aryl thioether with sulfur outside any ring (3):
# Every second line gives: YB-1 expression, Hedgehog inh, MITF inhib, PD-1 reverse act
COC(=O)CSc1nc2ccccc2[nH]1
    -0.34, -90, -1, 3.0
CCSc1ncnc2c1sc1nc3c(cc12)COC(C)(C)C3
    -0.57, -62, -57, 0.7
CC1CN(c2nc3ccccc3nc2SCC(=O)NCc2ccccc2Cl)CC(C)O1 (stereo not given)
    0.23, -13, -12, 0.0

# Later entries
# Every second line gives: YB-1 expression, Hedgehog inh, MITF inhib, PD-1 reverse act
C[C@@H]1CN([C@@H](C)CO)C(=O)c2cc(NC(=O)CCN3CCOCC3)ccc2O[C@@H]1CN(C)C(=O)Nc1ccc2c(c1)OCO2
    -0.99, nt, -7, 2.6
C[C@H]1CN([C@@H](C)CO)C(=O)Cc2cc(NC(=O)Nc3ccc(F)cc3)ccc2O[C@@H]1CN(C)S(=O)(=O)c1cccs1
    0.033, 9, 1, -0.2
CC(=O)Nc1ccc(OCC(O)Cn2nc(C)cc2C)cc1 (stereo not given)
    nt, nt, -8, 2.4
COC(=O)c1ccc(NC(=O)C(C)N2c3cccc4cccc(c34)S2(=O)=O)cc1 (stereo not given)
    nt, nt, 32, 0.3
C[C@@H]1CN([C@@H](C)CO)C(=O)c2cccc(NC(=O)c3cnccn3)c2O[C@H]1CN(C)C
    0.037, 5, -6, 2.5
Cc1noc(C)c1NC(=O)Nc1ccc2c(c1)C(=O)N([C@H](C)CO)C[C@@H](C)[C@H](CN(C)Cc1ccc(C(=O)O)cc1)O2
    -0.044, 24, -4, 1.2
CCn1c(SCC(=O)c2ccccc2)nnc1-c1ccco1
    nt, nt, -52, 0.4
Cc1noc(C)c1S(=O)(=O)Nc1cccc2c1O[C@H](CN(C)Cc1ccc3c(c1)OCO3)[C@H](C)CN([C@H](C)CO)C2=O
    -0.21, -19, 1, nt
C[C@H]1CN([C@@H](C)CO)C(=O)c2cc(NC(=O)Nc3ccc(C(F)(F)F)cc3)ccc2O[C@@H]1CN(C)CC1CCCCC1
    0.044, -1, -3, -0.5
O=C(COc1ccccc1[N+](=O)[O-])Nc1ccc(-c2nc3cc(Cl)ccc3o2)cc1
    nt, nt, -36, 0.0
C[C@@H]1CN([C@H](C)CO)C(=O)c2cccc(NC(=O)Nc3ccc4c(c3)OCO4)c2O[C@H]1CN(C)Cc1ccc2c(c1)OCO2
    -0.31, -21, -21, nt
Cc1cc(-c2nnc(SCC(=O)c3ccccc3Cl)n2C)no1
    0.07, -35, 7, -9.2
CC(C)NC(=O)N(C)C[C@H]1Oc2c(NC(=O)c3ccc(-c4nccs4)cc3)cccc2C(=O)N([C@H](C)CO)C[C@@H]1C
    -0.37, -7, -2, 0.9
CCOC(=O)Cc1nnc(Nc2cccc(C)c2)c2ccccc12
    nt, nt, -12, -0.3
C[C@@H]1CN([C@H](C)CO)C(=O)c2cc(NC(=O)Nc3ccccc3)ccc2O[C@@H]1CN(C)S(=O)(=O)c1cn(C)cn1
    0.067, -8, 5, 0.2
CCn1c(SCC(=O)Nc2ccc3c(c2)OCCO3)nnc1-c1ccncc1
    nt, nt, 1, 1.1
COc1ccc(CN(C)C[C@@H]2Oc3ccc(NC(=O)CCN4CCOCC4)cc3C(=O)N([C@@H](C)CO)C[C@@H]2C)cc1
    -0.29, 16, 2, 1.2
C[C@@H]1CN([C@@H](C)CO)C(=O)c2cccc(NC(=O)c3nc4ccccc4s3)c2O[C@H]1CN(C)Cc1ccc(C(=O)Nc2ccccc2N)cc1
    -0.43, nt, 23, -1.0
COc1ccc(S(=O)(=O)N(C)C[C@@H]2Oc3ccc(NC(=O)Nc4ccc(C(F)(F)F)cc4)cc3CC(=O)N([C@H](C)CO)C[C@H]2C)cc1
    0.22, -23, -12, nt
CCCC(=O)Nc1ccc(N)cc1
    -0.16, nt, 0, 0.9
C[C@H]1CN([C@@H](C)CO)C(=O)c2cc(N(C)C)ccc2O[C@H]1CN(C)Cc1ccc(-c2ccccc2)cc1
    0.065, -2, -6, nt
COc1ccc(-n2c(SCc3nc4ccccc4s3)nnc2-c2cccnc2)cc1
    nt, nt, 16, -2.6
COc1ccc(NC(=O)N(C)C[C@H]2Oc3ccc(NC(=O)Nc4cccc5ccccc45)cc3CC(=O)N([C@@H](C)CO)C[C@H]2C)cc1
    -0.069, nt, -20, nt
C[C@@H]1CCCCO[C@@H](CN(C)C(=O)Cc2ccccc2)[C@@H](C)CN([C@H](C)CO)C(=O)c2cc(NS(=O)(=O)c3cn(C)cn3)ccc2O1
    0.4, -7, -6, nt
Cc1noc(C)c1NC(=O)N(C)C[C@H]1Oc2c(NC(=O)C3CC3)cccc2C(=O)N([C@H](C)CO)C[C@@H]1C
    0.033, -14, -13, 3.3
O=C(CCc1nc(-c2ccccc2Cl)no1)Nc1ccc(Cl)c(Cl)c1
    nt, nt, -27, 1.2
Cc1ccc(Oc2ncc(C(F)(F)F)cc2Cl)c2c1CCC2
    -0.18, -4, -11, -0.5
Cc1noc(C)c1NC(=O)Nc1cccc2c1O[C@@H](CN(C)S(C)(=O)=O)[C@H](C)CN([C@@H](C)CO)C2=O
    -0.26, -10, -1, 1.1
C[C@@H]1CN([C@@H](C)CO)C(=O)c2cccc(NC(=O)Nc3ccc4c(c3)OCO4)c2O[C@@H]1CN(C)S(C)(=O)=O
    -0.17, -16, -17, nt
C[C@@H]1CCCCO[C@H](CN(C)C(=O)NC2CCCCC2)[C@@H](C)CN([C@H](C)CO)C(=O)c2cc(N(C)C)ccc2O1
    -0.0091, -7, 5, nt

# Next entries:
SMILES,YB-1 expression,Hedgehog inh,MITF inhib,PD-1 reverse act
Cc1noc(C)c1NC(=O)N(C)C[C@@H]1Oc2ccc(NS(=O)(=O)c3c(C)noc3C)cc2C(=O)N([C@@H](C)CO)C[C@@H]1C,0.31,-45,-8,2.4
O=C1C(Cc2ccc(-c3nn[nH]n3)cc2)=C(c2ccccc2)S(=O)(=O)c2ccccc21,0.042,107*,14,3.2
N#Cc1cc[n+](CC(=O)c2ccc(NC(=O)c3ccccc3)cc2)cc1,-0.16,-4,-11,-3.9
C[C@@H]1CN([C@@H](C)CO)C(=O)Cc2cc(NC(=O)Nc3ccc(C(F)(F)F)cc3)ccc2O[C@@H]1CN(C)S(=O)(=O)c1cccs1,0.36,18,69,-8.0
C[C@H]1CN([C@@H](C)CO)C(=O)c2cc(NC(=O)CCN3CCOCC3)ccc2O[C@@H]1CN(C)Cc1ccc(C(F)(F)F)cc1,-0.13,nt,?,1.2
C[C@@H]1CN([C@H](C)CO)C(=O)c2cccc(NS(C)(=O)=O)c2O[C@H]1CN(C)C(=O)Nc1cccc2ccccc12,-0.046,10,13,nt
C[C@H]1CN([C@@H](C)CO)C(=O)c2cc(NC(=O)c3ccncc3)ccc2O[C@@H]1CN(C)C(=O)Nc1ccc(C(F)(F)F)cc1,0.23,-21,4,0.4
C=C(CO)C(=O)O[C@H]1C[C@@]23O[C@@H]2CC/C(=C/[C@H]2OC(=O)C(=C)[C@H]12)CO[C@@H]3O,-0.32,-28,-11,-1.2
NC(=O)C1CC(=O)N(c2ccc(OCC(=O)Nc3ccccc3F)cc2)C1 (stereo not given),nt,nt,-71,-0.3
C[C@@H]1CN([C@@H](C)CO)C(=O)c2cc(NC(=O)Cc3ccccc3)ccc2O[C@@H]1CN(C)C(=O)Nc1ccc(C(F)(F)F)cc1,0.34,-7,16,-2.1
C[C@@H]1CN([C@@H](C)CO)C(=O)c2cccc(NC(=O)NC3CCCCC3)c2O[C@@H]1CN(C)S(=O)(=O)c1ccccc1,-0.15,-4,5,-1.1
CSc1nc(C=Nc2cccc(Cl)c2)c(O)n1Cc1cccc(Cl)c1,0.21,-5,-2,-1.7
COc1ccc(S(=O)(=O)N(C)C[C@@H]2Oc3c(NC(=O)C4CCOCC4)cccc3C(=O)N([C@H](C)CO)C[C@@H]2C)cc1,0.25,11,-12,0.5
C[C@@H]1CN([C@H](C)CO)C(=O)Cc2cc(NC(=O)Cn3cnnn3)ccc2O[C@@H]1CN(C)Cc1ccc2c(c1)OCO2,0.0047,-7,8,nt
CCc1cccc(C)c1NC(=O)CSc1nnc(-c2ccccc2)o1,nt,nt,-14,1.9
